Myc binder: binders of human c-Myc, primary screen, biochemical, small molecule microarray, anti-His fluorescence | Myc proto-oncogene protein (Homo sapiens), P01106 | His-c-Myc binding | calls only | 17,000 tested, 1.5% active | AID 624141, 2012;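 active = spot fluorescence over background with P-value below 7% in all four replicate spots, showing protein binding; compounds were printed on slides so no solution concentration is given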;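 note: score is binary with 100 for all four spots passing and 0 otherwise; about 2 pmol printed per array spot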
Target sequence (P01106 whole entry, looked up): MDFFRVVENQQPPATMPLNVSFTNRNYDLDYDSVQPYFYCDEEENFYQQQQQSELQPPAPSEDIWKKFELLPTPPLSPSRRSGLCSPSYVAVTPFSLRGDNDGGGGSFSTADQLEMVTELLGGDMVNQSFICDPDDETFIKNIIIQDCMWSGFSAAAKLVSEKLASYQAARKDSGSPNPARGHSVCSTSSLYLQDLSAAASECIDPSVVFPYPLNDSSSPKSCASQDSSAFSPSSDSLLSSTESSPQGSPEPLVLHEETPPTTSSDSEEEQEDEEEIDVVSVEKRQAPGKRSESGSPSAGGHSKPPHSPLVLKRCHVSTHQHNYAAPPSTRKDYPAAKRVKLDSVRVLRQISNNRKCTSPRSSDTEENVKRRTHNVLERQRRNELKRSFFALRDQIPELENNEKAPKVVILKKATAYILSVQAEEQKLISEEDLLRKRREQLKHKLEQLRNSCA
STAT3 binder: STAT3 binders, primary screen, biochemical, small molecule microarray, single point, set 2. Signal transducer and activator of transcription 3 (Homo sapiens), P40763. His-STAT3 binding, anti-His fluorescence. calls only. 17,000 tested, 0.2% active. AID 624138, 2012;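 active = compounds whose four printed spots each show fluorescence over background unusually high for their array block, chance value under 7%; compounds were printed on slides so no solution concentration is given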;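 note: about 2 pmol printed per array spot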
mut p53 SMM: binders of human mutant p53, primary screen, biochemical, small molecule microarray, anti-GST fluorescence. calls only. mutant tumor protein p53 (GST-tagged), Homo sapiens. small molecule microarray binding. 17,000 tested, 0.4% active;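 active = compounds whose four printed spots each glow above background more than chance allows, each with a p-value under 7%; compounds were printed on slides so no solution concentration is given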;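 note: about 2 pmol printed per array spot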
ID4 SMM: binders of human ID4 protein, primary screen, biochemical, small molecule microarray, single point. AID 624137, 2012. 31,000 tested, 1.2% active. Flag-ID4 binding, fluorescence F/B. calls only;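 active = spot signal over background at p below 0.07 in all four prints; compounds were printed on slides so no solution concentration is given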;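 note: a binder raises fluorescence above local background on the spot; about 2 pmol printed per array spot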
Target sequence (P47928 whole entry, looked up): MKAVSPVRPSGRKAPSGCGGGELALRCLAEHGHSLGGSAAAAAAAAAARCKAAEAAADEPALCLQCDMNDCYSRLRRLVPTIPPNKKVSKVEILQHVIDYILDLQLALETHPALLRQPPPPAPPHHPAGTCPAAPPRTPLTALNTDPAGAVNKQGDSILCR
Calls only; i = inactive; x = no result given; + = active, no number.

Below each SMILES – Myc binder | STAT3 binder | mut p53 SMM | ID4 SMM
> C[C@@H]1CCCCO[C@@H](CN(C)C(=O)Nc2ccc(C(F)(F)F)cc2)[C@@H](C)CN([C@H](C)CO)C(=O)c2cc(NC(=O)Nc3ccc4c(c3)OCO4)ccc2O1
→ i | i | i | x
> C[C@@H]1CN([C@H](C)CO)C(=O)c2cccc(NS(=O)(=O)c3cn(C)cn3)c2O[C@H]1CN(C)C
→ i | i | i | i
> COc1ccc(CN(C)C[C@@H]2Oc3ccc(NS(=O)(=O)c4ccc(Cl)cc4)cc3CC(=O)N([C@@H](C)CO)C[C@@H]2C)cc1
→ i | i | i | i
> O=C(CSc1nc(-c2ccc(F)cc2)cs1)Nc1ccc(N2CCOCC2)c(Cl)c1
→ i | i | i | i
> CC(C)NC(=O)Nc1ccc2c(c1)CC(=O)N([C@@H](C)CO)C[C@@H](C)[C@@H](CN(C)Cc1ccc(C(F)(F)F)cc1)O2
→ i | i | i | i
> CC(C)(C)OC(=O)CC[C@@]12N=C(c3ccc(OCCCO)cc3)O[C@@H]1c1ccccc1CN(C(=O)c1ccccc1)C2=O
→ i | i | i | x
> CNC[C@H]1Oc2ccc(NC(=O)Nc3ccc(F)cc3)cc2C(=O)N([C@H](C)CO)C[C@H]1C
→ i | i | i | i
> C[C@@H]1CN([C@H](C)CO)C(=O)c2cc(NC(=O)C3CCCCC3)ccc2O[C@@H](C)CCCCO[C@@H]1CN(C)Cc1ccc(C(=O)O)cc1
→ i | i | i | i
> CNC[C@H]1Oc2ccc(N)cc2C(=O)N([C@@H](C)CO)C[C@@H]1C
→ i | i | i | i
> CCOC(=O)/C=C/c1c(OC)cccc1OC
→ i | i | i | i
> C[C@H](CO)N1C[C@H](C)[C@@H](CN(C)C(=O)Nc2ccccc2)Oc2ccc(NC(=O)CCN3CCOCC3)cc2C1=O
→ i | i | i | i
> O=C(O)CCCCCCC(=O)Nc1ccc(C2CC(CSc3nc(-c4ccccc4)c(-c4ccccc4)o3)OC(c3ccccc3)O2)cc1 (stereo unspecified)
→ i | i | i | +
> C[C@@H]1CN([C@@H](C)CO)C(=O)c2cccc(NS(C)(=O)=O)c2O[C@H]1CN(C)Cc1ccncc1
→ i | i | i | i
> C[C@@H]1CCCCO[C@@H](CN(C)Cc2ccncc2)[C@@H](C)CN([C@H](C)CO)C(=O)c2cc(NC(=O)c3ccncc3)ccc2O1
→ i | i | i | i
> COc1cc(O)cc(O)c1C(=O)/C=C/c1ccccc1
→ i | i | i | i

Reprinted from the part before: two entries, then new ones.
Below each SMILES – Myc binder | STAT3 binder | mut p53 SMM | ID4 SMM
> C[C@@H]1CCCCO[C@@H](CN(C)Cc2ccncc2)[C@@H](C)CN([C@H](C)CO)C(=O)c2cc(NC(=O)c3ccncc3)ccc2O1
→ i | i | i | i
> COc1cc(O)cc(O)c1C(=O)/C=C/c1ccccc1
→ i | i | i | i
> C[C@H]1CN([C@@H](C)CO)C(=O)c2cccc(NC(=O)c3ccncc3)c2O[C@H]1CN(C)Cc1ccc(Cl)c(Cl)c1
→ i | i | i | i
> C[C@@H]1CN([C@H](C)CO)C(=O)c2cc(NC(=O)Nc3ccccc3)ccc2O[C@@H]1CN(C)C(=O)Nc1ccc(C(F)(F)F)cc1
→ i | i | i | i
> C[C@@H]1CN([C@@H](C)CO)C(=O)c2cc(N(C)C)ccc2O[C@@H](C)CCCCO[C@@H]1CN(C)C(=O)C1CCCCC1
→ i | i | i | i
> C[C@H]1CN([C@@H](C)CO)C(=O)c2cccc(NC(=O)c3cnccn3)c2O[C@@H]1CN(C)C(=O)Nc1ccc(F)cc1
→ i | i | i | i
> CC(C)NC(=O)Nc1ccc2c(c1)C(=O)N([C@H](C)CO)C[C@H](C)[C@@H](CN(C)Cc1ccc3c(c1)OCO3)OCCCC[C@@H](C)O2
→ i | i | i | x
> CC(NS(=O)(=O)c1ccc(Cl)cc1)C(=O)Nc1cccc2ccccc12 (stereo unspecified)
→ i | i | i | i
> C[C@@H]1CCCCO[C@H](CN(C)Cc2ccncc2)[C@@H](C)CN([C@@H](C)CO)C(=O)c2cc(NS(=O)(=O)c3ccccc3)ccc2O1
→ i | i | i | i
> C=C(C(=O)O)[C@@H]1CC[C@@]2(C)CC[C@@H](O)C(=C)C2C1 (stereo partly specified)
→ i | i | i | i
> COc1ccc(NC(=O)Nc2ccc3c(c2)C(=O)N([C@H](C)CO)C[C@@H](C)[C@H](CN(C)C(=O)Nc2ccc(OC)cc2)O3)cc1
→ i | i | i | x
> COc1ccc(NC(=O)Cc2coc3c(C)c(C)ccc23)c(OC)c1
→ i | i | i | i
> CCCCCCCCC(=O)NCc1cc(OC)c(O)cc1I
→ i | i | i | i
> C[C@@H]1CN([C@H](C)CO)C(=O)c2cccc(NS(=O)(=O)c3ccc(F)cc3)c2O[C@H]1CN(C)Cc1ccc(C(F)(F)F)cc1
→ i | i | i | i
> C[C@@H]1CN([C@H](C)CO)C(=O)Cc2cc(NC(=O)Nc3ccc(F)cc3)ccc2O[C@@H]1CN(C)Cc1ccc(C(=O)O)cc1
→ i | i | i | i
> CCC(=O)Nc1ccc(Cl)c(NC(=O)COc2cc(C)cc(C)c2)c1
→ i | i | i | i
> Cc1sc2ncnc(SCC(=O)NC3CCCCC3)c2c1C
→ i | i | i | i
> CCc1nn(CCCN2CCN(c3cccc(Cl)c3)CC2)c(=O)n1CCOc1ccccc1
→ i | i | i | i
> C[C@@H]1CCCCO[C@@H](CN(C)C(=O)CCCN(C)C)[C@@H](C)CN([C@@H](C)CO)C(=O)c2cc(NC(=O)CCCN(C)C)ccc2O1
→ i | i | i | i
> Cc1ccc(S(=O)(=O)N(CC(=O)O)c2ccc(Br)cc2)cc1
→ i | i | i | i
> C[C@@H]1CN([C@H](C)CO)C(=O)Cc2cc(NC(=O)Nc3ccc(C(F)(F)F)cc3)ccc2O[C@@H]1CN(C)C(=O)Nc1ccc(F)cc1
→ i | i | i | x
> COc1cc(OC)c(OC)cc1CN1CCN(Cc2ccccn2)CC1
→ + | i | i | i
> C[C@@H]1CN([C@H](C)CO)C(=O)Cc2cc(NC(=O)Cn3cnnn3)ccc2O[C@@H]1CN(C)Cc1ccc(Cl)c(Cl)c1
→ i | i | i | x
> COc1cc2c(cc1OC)CN(C(=O)[C@H]1[C@@H]3C(=O)O[C@@H](c4ccccc4)[C@@H](c4ccccc4)N3[C@@H](c3ccc(O)cc3)[C@]13C(=O)Nc1ccc(C#CC4=CCCCC4)cc13)CC2
→ i | i | i | x
> COc1cc(OC)c2c(c1O)OC(c1ccccc1)CC2=O (stereo unspecified)
→ i | i | i | i
> O=C1OC[C@@H](c2ccccc2)n2cc(/C=C/c3ccccc3)cc21
→ i | i | i | x
> C[C@H]1CN([C@@H](C)CO)C(=O)c2cccc(NC(=O)Nc3ccc(C(F)(F)F)cc3)c2O[C@@H]1CN(C)S(=O)(=O)c1ccc(Cl)cc1
→ i | i | i | i
> C[C@@H]1CN([C@@H](C)CO)C(=O)c2cccc(N(C)C)c2O[C@H]1CN(C)Cc1ccccc1
→ i | i | i | i
> C[C@@H]1CN([C@@H](C)CO)C(=O)CCCn2cc(nn2)CO[C@@H]1CN(C)C(=O)c1ccc(N2CCN(C)CC2)cc1
→ i | i | i | i
> C[C@@H]1CN([C@H](C)CO)C(=O)c2cccc(NC(=O)C3CCOCC3)c2O[C@@H]1CN(C)Cc1ccc(Oc2ccccc2)cc1
→ i | i | i | i
> COCCCNC(=O)[C@@]1(Cc2ccccc2CN=[N+]=[N-])COC(c2ccc(OCCCO)cc2)=N1
→ i | i | i | x
> N#Cc1ccc(-c2cccs2)nc1SCC(=O)Nc1sc2c(c1C#N)CCCC2
→ + | i | i | i
> C[C@@H]1CN([C@@H](C)CO)C(=O)c2cc(NC(=O)CCC(F)(F)F)ccc2O[C@H]1CN(C)S(=O)(=O)c1ccccc1
→ i | i | i | x
> COc1ccc(NC(=O)Nc2ccc3c(c2)C(=O)N([C@@H](C)CO)C[C@@H](C)[C@@H](CN(C)S(=O)(=O)c2cn(C)cn2)O3)cc1
→ i | i | i | i
> C/C=C(\C)CC(/C=C(\C)C(O)C(C)/C=C(\C)C(O)C(C)/C=C/C(O)C/C=C/C(O)C(O)C(=O)O)C(=O)O (stereo unspecified)
→ i | i | i | i
> Cc1noc(C)c1NC(=O)Nc1ccc2c(c1)C(=O)N([C@H](C)CO)C[C@@H](C)[C@@H](CN(C)C)O2
→ i | i | i | i
> C[C@H](CO)N1C[C@H](C)[C@H](CN(C)C(=O)NC2CCCCC2)Oc2c(NC(=O)Nc3ccc(C(F)(F)F)cc3)cccc2C1=O
→ i | i | i | i
> C[C@@H]1CN([C@@H](C)CO)C(=O)c2cccc(NS(=O)(=O)c3cccs3)c2O[C@@H]1CN(C)Cc1ccc2c(c1)OCO2
→ i | i | i | i
> COc1ccc(S(=O)(=O)N(C)C[C@H]2Oc3ccc(NC(=O)CCN4CCOCC4)cc3C(=O)N([C@H](C)CO)C[C@@H]2C)cc1
→ i | i | i | i
> C[C@@H]1CN([C@@H](C)CO)C(=O)Cc2cc(NS(C)(=O)=O)ccc2O[C@@H]1CN(C)C(=O)Nc1ccc(C(F)(F)F)cc1
→ i | i | i | i
> C[C@@H]1CN([C@H](C)CO)C(=O)c2cc(N(C)C)ccc2O[C@H]1CN(C)C
→ i | i | i | i
> C[C@@H]1CCCCO[C@@H](CN(C)C)[C@@H](C)CN([C@H](C)CO)C(=O)c2cc(NS(=O)(=O)c3cccs3)ccc2O1
→ i | i | i | i
> Cc1noc(C)c1S(=O)(=O)Nc1ccc2c(c1)C(=O)N([C@H](C)CO)C[C@H](C)[C@H](CN(C)C(=O)Nc1ccccc1)OCCCC[C@H](C)O2
→ i | i | i | i
> COc1ccccc1NC(=O)CNC(=O)c1ccc(OC)c(OC)c1
→ i | i | i | i
> COc1ccc([Si](C)(C)[C@@H]2[C@@H](CCn3cc([C@H](O)c4ccccc4)nn3)O[C@]3(C(=O)N(C)c4ccccc43)[C@H]2C)cc1
→ i | i | i | i
> C[C@@H]1CCCCO[C@H](CN(C)S(C)(=O)=O)[C@H](C)CN([C@@H](C)CO)C(=O)c2cc(NS(=O)(=O)c3ccccc3)ccc2O1
→ i | i | i | i
> C[C@@H]1CCCCO[C@H](CN(C)C)[C@@H](C)CN([C@@H](C)CO)C(=O)c2cc(NC(=O)CCC(F)(F)F)ccc2O1
→ i | i | i | i

Arranged by SMILES length (smallest number first): 3 of the compounds above.
Below each SMILES – Myc binder | STAT3 binder | mut p53 SMM | ID4 SMM
> C[C@@H]1CCCCO[C@@H](CN(C)C)[C@@H](C)CN([C@H](C)CO)C(=O)c2cc(NS(=O)(=O)c3cccs3)ccc2O1
→ i | i | i | i
> COc1ccc(S(=O)(=O)N(C)C[C@H]2Oc3ccc(NC(=O)CCN4CCOCC4)cc3C(=O)N([C@H](C)CO)C[C@@H]2C)cc1
→ i | i | i | i
> COc1ccc([Si](C)(C)[C@@H]2[C@@H](CCn3cc([C@H](O)c4ccccc4)nn3)O[C@]3(C(=O)N(C)c4ccccc43)[C@H]2C)cc1
→ i | i | i | i

The results go on:
Below each SMILES – Myc binder | STAT3 binder | mut p53 SMM | ID4 SMM
> C=C(C)[C@@H]1CC[C@]2(C(=O)O)CC[C@]3(C)C(CCC4[C@@]5(C)C[C@@H](O)[C@H](O)C(C)(C)C5CC[C@]43C)C12 (stereo partly specified)
→ i | i | i | x
> COc1cc2cc(Oc3ccc4ccc(=O)oc4c3)c(=O)oc2cc1OC(C)=O
→ i | i | i | x
> C[C@@H]1CCCCO[C@H](CN(C)C(=O)CCC(F)(F)F)[C@H](C)CN([C@H](C)CO)C(=O)c2cc(NC(=O)Cc3ccccc3)ccc2O1
→ i | i | i | i
> CC(C)NC(=O)N(C)C[C@H]1OCCCC[C@H](C)Oc2ccc(NC(=O)Nc3ccc(C(F)(F)F)cc3)cc2C(=O)N([C@H](C)CO)C[C@@H]1C
→ i | i | i | i
> CNC[C@@H]1Oc2c(NC(=O)Nc3ccc4c(c3)OCO4)cccc2C(=O)N([C@@H](C)CO)C[C@@H]1C
→ i | i | i | x
> C[C@H]1CN([C@@H](C)CO)C(=O)Cc2cc(NC(=O)CCC(F)(F)F)ccc2O[C@H]1CN(C)Cc1ccc2c(c1)OCO2
→ i | i | i | i
> Cc1nnc(SCc2nc(N)nc(Nc3ccccc3)n2)s1
→ i | i | i | i
> C[C@H](CO)N1C[C@H](C)[C@@H](CN(C)S(=O)(=O)c2cccs2)OCCCC[C@H](C)Oc2ccc(NC(=O)Cc3ccccc3)cc2C1=O
→ i | i | i | i
> Cc1noc(C)c1S(=O)(=O)N(C)C[C@H]1OCCCC[C@H](C)Oc2ccc(NC(=O)NC(C)C)cc2C(=O)N([C@H](C)CO)C[C@H]1C
→ i | i | i | i
> C[C@H](CO)N1C[C@H](C)[C@H](CN(C)S(=O)(=O)c2cccs2)Oc2ccc(NC(=O)C3CC3)cc2C1=O
→ i | i | i | i
> CCOC(=O)c1c(NC(=O)c2ccc(NS(C)(=O)=O)cc2)sc2c1CCCC2
→ i | i | i | i
> O=C(Nc1ccccc1[N+](=O)[O-])c1cc(S(=O)(=O)Nc2ccccc2)c(Cl)cc1Cl
→ i | i | i | i
> COc1c(C2OCC(OC(C)=O)C(OC(C)=O)C2OC(C)=O)c(O)cc2oc(-c3ccc(OC4OC(CO)C(O)C(O)C4O)cc3)cc(=O)c12 (stereo unspecified)
→ i | i | i | i
> Cc1ccc(-c2nc3ccccc3o2)cc1NC(=O)COc1ccccc1
→ i | i | i | i

Compound activity from PubChem BioAssay.

A portion of the library, so the mix of outcomes need not match the whole.
